# BJeLR lethal: MLPCN primary cell-based screen for lethality selective to Ras in HRASV12 cells | BJeLR (HRASV12) viability, CellTiter-Glo ATP luminescence, 48 h; reference of the scale not given here | 300,000 compounds, 0.17% hits | inhibition, % (test concentration not listed);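 active = replicate mean above 50%; inconclusive = above 50% but judged a plate artefact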;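 also: 50 nL library stock added to about 25 µL; numbers are from one replicate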
# ugtP null kill: growth inhibition of ugtP-null S. aureus, primary screen, RN4220 ugtP deletion, OD600. 16 h; some inactives read as strong as hits. growth inhibition, % (test concentration not listed). 330,000 compounds, 0.54% hits. AID 1259309, 2017;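 active = z-score under -3 and OD600 up to 0.15 on both plates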;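 also: plate controls were untreated wells for no effect and antibiotic for full effect; wells of about 80 µL received 100 nL stock; the first replicate is given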
# PrP 5UTR inh: inhibition of PrP 5' UTR reporter expression. cell-based PrP 5' UTR mRNA reporter, plate reader. AID 488862, 2010. inhibition, % (no concentration beside the values). 340,000 compounds, 0.35% hits;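 active = every replicate at 50% or more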;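 also: 0 = median of the neutral control wells; tested in H4 reporter cells; numbers are from one replicate; inactives centre near -14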
# Mtb hypoxia rep: PubChem AID 1159583; fluorescence inhibition, % (concentration not given with the values); 300,000 compounds, 0.1% hits; M. tuberculosis hypoxia-regulated fluorescent reporter, fluorescence;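 active = 35 to 45% if threefold the growth effect, above 45% if 1.5-fold the growth effect; inactive = the rest, general growth blockers included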;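 also: wells of about 50 µL received 100 nL stock; 0% = vehicle wells and 100% = reference inhibitor wells; whole bacteria with a GFP reporter of the hypoxia response; strong numbers were not always called active; many hits fall short of the cut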
# RN4220 kill: growth inhibition of S. aureus RN4220, primary screen, OD600; 330,000 compounds, 0.33% hits; inhibition, % (concentration not given with the values); AID 1259311, 2017; 16 h;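 active = z-score of -3 or lower and OD600 up to 0.18 on both plates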;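 also: plate controls were untreated cells for no effect and reference antibiotic for full effect; stock transfer was 100 nL into about 80 µL; one replicate is shown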
# Autofluor counter: counter-screen for toxin protease inhibitors: compound fluorescence; compound autofluorescence counterscreen, microsphere flow cytometry; hits give high values; fluorescence intensity (concentration not given with the values); 360,000 compounds, 3.1% hits; AID 624483;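 active = at least 3 SD above the mean of all compounds, about 16000 in these data; inconclusive = too few beads counted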;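 also: 100 nL of 1 mM stock went into each well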
# Mtb hypoxia rep growth: recorded beside Mtb hypoxia rep, whose call it bears; growth inhibition, %; measured here: M. tuberculosis growth (absorbance);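 0% = vehicle and 100% = reference antibiotic; read after six days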
# * marks the source's active call; other numbers are inactive results; ? = inconclusive; nt = not tested or not shown.
SMILES,BJeLR lethal,ugtP null kill,PrP 5UTR inh,Mtb hypoxia rep,Mtb hypoxia rep growth,RN4220 kill,Autofluor counter
Cc1ccc(NC(=O)Cn2cnc([N+](=O)[O-])c2)cc1C,-1.7,nt,-8.0,nt,nt,nt,3717
O=Cc1ccc2cccnc2n1,-5.3,2.2,-9.5,-2.8,3.4,5.9,3339
COCC1CCCN(C(=O)c2cc(COc3ccc4ncccc4c3)on2)C1 (configuration not stated),14.0,0.9,-8.1,4.4,5.4,4.6,5981
CCOc1ccccc1NC(=O)NC(=O)N(C)S(=O)(=O)c1ccc(C)cc1,-6.0,8.8,-13.8,3.8,-4.2,0.1,2222
CCC1CCCCN1CCCNC(=O)c1cn(C)c2ccc(S(=O)(=O)N3CCOCC3)cc2c1=O (configuration not stated),0.2,0.4,-13.8,7.3,7.1,1.6,5205
O=C(COc1ccccc1)NCC(=O)N/N=C/c1ccc(Br)cc1,-2.4,nt,-15.8,nt,nt,nt,5155
O=C(CNC(=O)COc1ccccc1)NCCc1ccccn1,0.1,4.8,-19.0,0.5,-19.3,7.4,3414
Cc1ccsc1-c1n[nH]c(=S)n1CC(C)C,-7.5,-0.8,-27.8,17.7,7.0,3.1,1954
CC(Sc1nnc(-c2cccs2)n1Cc1ccccc1)C(=O)NCc1ccc2c(c1)OCO2 (configuration not stated),3.3,-10.5,2.6,0.3,4.7,-13.8,2405
Cc1ccnc(NC(=O)c2cc([N+](=O)[O-])cc([N+](=O)[O-])c2)c1,-8.9,-3.6,-4.0,11.3,19.0,7.5,4361
CCOC(=O)c1c(OCCO)noc1N,-12.6,-2.4,-82.0,11.5,13.7,6.2,4701
CCCNC(=O)Nc1ccc2c(c1)N(C)C(=O)c1ccccc1S2,6.0,9.7,-2.1,2.7,5.3,-4.3,16271*
Cc1ccc(C=NNC(=O)c2c(-c3ccccc3)noc2C)o1,nt,17.2,nt,-4.1,-2.2,6.1,nt
O=C(CF)NC(NC(=S)Nc1cccc([N+](=O)[O-])c1)C(Cl)(Cl)Cl (configuration not stated),1.3,-16.7,-35.4,2.7,4.6,-0.7,2545
COc1ccc(Nc2nc3ccccc3c(=O)[nH]2)cc1,6.6,1.5,-17.2,13.1,9.4,5.2,4794
Cc1ccccc1NS(=O)(=O)c1cc(C(=O)Nc2ccccc2-c2ccccc2)ccc1Cl,-2.7,-24.6,-64.5,4.2,-3.0,-8.0,11211
CC(C)(C)NC(=O)COC(=O)C1c2ccccc2Oc2ccccc21,-4.6,4.0,-42.9,9.8,9.1,6.7,3546
CCOC(=O)c1cnn(-c2c(Cc3ccccc3)c(C)nc3c(-c4ccccc4)c(C)nn23)c1N,-1.1,5.0,-2.1,-4.3,5.0,8.5,22024*
CCC(=NCc1ccco1)c1c(O)n(Cc2ccccc2)c(=O)[nH]c1=O,0.6,2.1,-16.5,-0.1,-1.7,0.7,16877*
CCOC(=O)C1CCN(S(=O)(=O)c2cccc(-c3cn4cccc(C)c4n3)c2)CC1,nt,-4.5,-3.5,-0.8,10.6,0.9,3448
CCOC(=O)c1cnc(-c2ccccc2)nc1Oc1ccc(Cl)c(Cl)c1,-3.0,6.1,-10.3,nt,nt,3.0,2418
CC(=O)Nc1ccc2nc(NC(=O)c3ccco3)sc2c1,6.9,0.4,-40.0,-10.0,-5.5,5.3,3164
CCN(CC)S(=O)(=O)c1ccc2oc(SCC(=O)NCc3ccccc3)nc2c1,-6.7,-0.2,-21.8,10.1,7.6,2.0,5235
O=C(O)CC1c2cc(F)ccc2S(=O)(=O)N1C1CCN(Cc2ccccc2)CC1 (configuration not stated),nt,-5.2,nt,5.9,9.0,3.8,nt
CC(=O)Nc1cc2c(cc1Cl)-c1ccccc1C2O (configuration not stated),nt,-6.0,2.7,-4.7,6.6,-1.5,3883
# New compounds follow:
SMILES,BJeLR lethal,ugtP null kill,PrP 5UTR inh,Mtb hypoxia rep,Mtb hypoxia rep growth,RN4220 kill,Autofluor counter
O=C(O)c1ccc(Nc2ccc3nonc3c2[N+](=O)[O-])cc1,-1.8,10.1,-22.9,9.3,11.8,4.4,3270
CCOC(=O)c1c(C)[nH]c(C(=O)OCC(=O)N(CC(C)C)C2CCS(=O)(=O)C2)c1C (configuration not stated),nt,8.2,-22.9,7.4,-1.3,2.0,5898
CC(=O)C(=NNc1ccccc1Cl)Sc1nnc(-c2ccccc2)n1-c1ccccc1,nt,-10.3,nt,2.3,1.0,-8.7,nt
CN1/C(=C\C(=O)c2cccc([N+](=O)[O-])c2)Sc2ccccc21,-0.3,-4.5,-135.7,11.6,-3.3,5.7,5028
O=C(Nc1ccc2c(c1)OCO2)C(c1ccc(Cl)cc1)N1CCN(C(=O)c2ccco2)CC1 (configuration not stated),-1.4,4.3,-4.6,nt,nt,-1.1,4595
O=C(CN1CCN(Cc2ccc(Cl)cc2)CC1)N/N=C/c1cccs1,1.0,nt,-38.6,nt,nt,nt,3826
COc1ccc(C2C(C(=O)N3CCN(c4ccccn4)CC3)CCC(=O)N2c2cc(OC)c(OC)c(OC)c2)cc1 (configuration not stated),-2.7,3.7,-5.1,3.1,-6.0,2.3,4484
COc1ccc(CCn2c(C)cc(C(=O)CSc3nnc(N)s3)c2C)cc1,3.1,2.4,-13.5,0.4,9.3,4.7,9795
COc1ccc(COc2cccnc2N)cc1,-3.8,-2.6,-27.0,2.3,12.6,3.7,3978
C=CCNCCCOc1ccc(C(C)(C)c2ccccc2)cc1,-6.0,3.0,-13.6,8.7,5.6,-1.4,2340
O=C(OCC(=O)N1CCCC1=O)c1cccc([N+](=O)[O-])c1,-17.9,5.0,-8.2,1.8,-7.3,1.2,5932
CC(C)(C)c1cc2cccnc2n1Cc1ccccc1,14.3,7.9,-7.1,nt,nt,0.1,2149
COc1ccc(NC(=O)[C@@H](NC(=O)N2C[C@H]3C[C@@H](C2)c2cccc(=O)n2C3)C(C)C)cc1OC,0.1,1.6,-3.6,nt,nt,2.2,5037
Cc1ccc(N(CC(=O)NCc2ccncc2)S(C)(=O)=O)cc1Cl,0.9,8.6,6.2,nt,nt,11.6,3599
CCC(=O)N1c2ccc(S(=O)(=O)N3CCN(c4ccccc4Cl)CC3)cc2CC1C (configuration not stated),1.1,0.4,-12.5,-6.4,-2.2,0.3,4987
CSc1ccc(C(=O)C2CCCN(C(=O)CCn3cncn3)C2)cc1 (configuration not stated),-2.8,3.4,-12.0,3.6,1.5,1.7,5687
CC1CCN(c2nc(CN3CCCCC3)nc3scc(-c4ccccc4)c23)CC1,10.1,-18.2,-5.9,11.8,7.0,11.8,11348
Cc1ccc(/C=C2\SC(=S)N(CC3CCCO3)C2=O)o1 (configuration not stated),86.2*,4.8,-37.2,-1.5,1.5,2.0,3638
C=CCOc1ccc(C=NNC(=O)C(C)Sc2ccccn2)cc1OCC (configuration not stated),nt,9.6,nt,13.5,-2.3,4.8,nt
CCNC(=O)COC(=O)c1ccc(-n2nc(C)cc2C)cc1,-2.1,5.0,45.2,7.4,9.4,8.5,4506
OCCNC(=S)NCCc1ccccc1,2.3,-2.3,-34.2,14.4,3.0,0.8,2476
COc1ccc(CCNC(=O)CSCc2ccc([N+](=O)[O-])cc2)cc1,-3.2,0.5,-3.9,6.7,2.7,2.5,2142
O=C(CN1CCOCC1)NN1CC(=O)N(c2ccc(Cl)cc2)CC1=O,-0.7,8.2,-49.2,3.0,-2.0,-0.1,4448
CNC(=O)c1csc(-c2ccc(Cl)cc2)n1,6.4,-3.0,-46.1,10.9,16.4,9.7,3414
CCN(CC)CCC(c1cc(OC)c(OC)c(OC)c1)c1c(OC)cc(OC)c2c(C)cc(=O)oc12 (configuration not stated),-2.8,-1.6,-6.9,12.5,20.6,1.9,3624

# In the list so far, 2 contain a COOH group:
SMILES,BJeLR lethal,ugtP null kill,PrP 5UTR inh,Mtb hypoxia rep,Mtb hypoxia rep growth,RN4220 kill,Autofluor counter
O=C(O)CC1c2cc(F)ccc2S(=O)(=O)N1C1CCN(Cc2ccccc2)CC1 (configuration not stated),nt,-5.2,nt,5.9,9.0,3.8,nt
O=C(O)c1ccc(Nc2ccc3nonc3c2[N+](=O)[O-])cc1,-1.8,10.1,-22.9,9.3,11.8,4.4,3270

# Later entries.
SMILES,BJeLR lethal,ugtP null kill,PrP 5UTR inh,Mtb hypoxia rep,Mtb hypoxia rep growth,RN4220 kill,Autofluor counter
O=C(CSc1nnc(-c2ccccn2)n1Cc1ccccc1)N1CCOCC1,-10.7,15.0,-18.4,0.9,4.6,5.0,3668
NC(=O)CNC(=O)C1CC2(CC(c3ccc(Cl)cc3)=NO2)CN1C(=O)c1ccccc1 (configuration not stated),nt,3.2,nt,4.2,2.6,7.3,nt
C=CCn1c(C)cc(-c2csc(NC(=O)CCc3nc4ccccc4c(=O)[nH]3)n2)c1C,5.9,-6.7,-19.3,5.8,4.4,7.8,5858
O=C(CSc1nccn1-c1ccccc1)NCc1ccc2c(c1)OCO2,-6.5,-1.8,-19.8,nt,nt,3.5,4443
CCOC(=O)C1CCCN(C(=O)c2cccc(S(=O)(=O)N(C)c3ccc(C)cc3)c2)C1 (configuration not stated),nt,9.1,-4.5,6.6,-10.2,4.7,8370
Fc1cccc(CCN2CCNCC2Cc2cccc3ccccc23)c1 (configuration not stated),nt,-28.5,nt,19.1,17.9,-6.3,nt
COC(/C(=N/O)c1ccc(Cl)cc1)c1ccccc1 (configuration not stated),-1.0,nt,-38.7,nt,nt,nt,3371
Cc1cccc(NC(=O)C(C)n2cc([N+](=O)[O-])cn2)n1 (configuration not stated),-2.6,-1.3,-7.5,-4.0,0.7,7.0,4160
O=C(NN=Cc1cnc2ccccc2n1)c1cccc(F)c1,nt,-3.9,nt,-1.6,2.0,0.6,nt
CCCCc1ccc(S(=O)(=O)NC2CCS(=O)(=O)C2)cc1 (configuration not stated),5.6,4.5,-22.6,3.3,4.0,1.6,3413
CC(C)(Cc1ccc(O)cc1)NC(=O)CC(=O)NN=Cc1ccc(Cl)cc1,nt,-1.3,nt,0.6,7.5,-6.5,nt
CC(=O)c1cccc(OCC(O)CNCCOc2ccc(C)cc2)c1 (configuration not stated),-14.6,1.2,-29.3,11.9,9.1,3.7,3555
Cc1cc(CNC(=O)C2CCC(=O)N(Cc3cccc(C(F)(F)F)c3)C2)no1 (configuration not stated),6.4,-6.8,-19.0,-10.8,-15.0,-3.7,5366
Cc1ccc(N2CCN(C(=S)Nc3ccccc3)CC2)cc1,4.6,-1.5,-38.7,9.8,3.3,5.1,6219
CCOC(=O)C1CCN(C(=O)c2ccc3c(c2)NC(=O)/C(=C\c2ccc(C)cc2)S3)CC1,-0.3,nt,-22.9,nt,nt,nt,4377
O=C(CNC(=O)c1ccccc1)NCCCSc1ccccc1,nt,7.4,-11.9,1.7,2.9,-1.3,3531
Nc1c(C(=O)NCCN2CCOCC2)c2nc3ccccc3nc2n1CCc1ccccc1F,15.1,-0.3,-6.3,0.7,-2.5,1.7,8264
Cc1cc2cc(OCC(=O)O)ccc2n1C,-5.7,5.2,-0.2,6.0,9.4,6.9,5926
Cc1ccc(C(=O)OCC(=O)N(C)c2c(N)n(Cc3ccccc3)c(=O)[nH]c2=O)s1,6.8,2.0,-10.4,9.0,3.4,0.9,?
COc1ccc(NCC(=O)N2CCCC2)cc1Cl,10.5,1.6,-38.3,-18.0,-3.9,-0.5,5348
Cc1ccc(CC(=O)c2ccc(Cl)cc2)cc1,0.3,11.1,-55.6,nt,nt,2.8,5942
CCOc1c(Br)ccc2c1sc1nc[nH]c(=O)c12,-1.8,6.1,-5.1,nt,nt,7.1,2346
O=C(OCc1cc(=O)oc2cc(O)ccc12)c1cc(S(=O)(=O)N2CCOCC2)ccc1F,5.3,-13.1,2.1,1.0,2.0,-0.6,6221
CC(C)CCN1CCN(Cc2cccc(C(F)(F)F)c2)CC1CCO (configuration not stated),-4.1,4.2,-18.9,1.8,-10.7,2.6,3583
O=S(=O)(NCCCN1CCOCC1)c1ccc2c(c1)OCCO2,-7.0,7.3,-20.2,-4.5,-3.3,5.7,4430

# Sorted by length of the SMILES (highest first): part of the list above
SMILES,BJeLR lethal,ugtP null kill,PrP 5UTR inh,Mtb hypoxia rep,Mtb hypoxia rep growth,RN4220 kill,Autofluor counter
C=CCn1c(C)cc(-c2csc(NC(=O)CCc3nc4ccccc4c(=O)[nH]3)n2)c1C,5.9,-6.7,-19.3,5.8,4.4,7.8,5858
Cc1cccc(NC(=O)C(C)n2cc([N+](=O)[O-])cn2)n1 (configuration not stated),-2.6,-1.3,-7.5,-4.0,0.7,7.0,4160
O=C(CSc1nccn1-c1ccccc1)NCc1ccc2c(c1)OCO2,-6.5,-1.8,-19.8,nt,nt,3.5,4443

# Bioassay records deposited in PubChem BioAssay by several laboratories.
